# Screening results deposited in PubChem BioAssay by National Center for Advancing Translational Sciences (NCATS).
# 2A StopGo: lowers the luciferase signal of an FMDV 2A StopGo reporter | human cells with a luciferase reporter of 2A StopGo recoding; control for the full effect not named in the record | Potency, µM (highest dose often 57.9 µM), inactives show at the top dose signal change, negative = less light | hit rate 1.2% among 410,000; active = well fitted falling curve with a large enough effect; inconclusive = small, poorly fitted or top-dose-only effect; inactive = no such curve, though single readings can be large or run the other way; tested in HEK293T cells; also: % is scaled to controls: 0 for no effect and ±100 for the full control effect; nearly all actives have a fitted effect of over 45% in size; luciferase light after 4 h
# Cruzain noTriton: cruzain (T. cruzi) inhibition without detergent; P25779; purified cruzain, Z-FR-AMC fluorescence, no detergent; Potency, µM, without a hit: max response, negative = inhibition, most hits filed as inhibitors; hit rate 2.3% among 200,000; AID 1476; active = well fitted curve in the direction sought with a large enough effect; inconclusive = small, poorly fitted or top-dose-only effect, or another doubt; inactive = no such curve, though single readings can be large; an effect the other way counts as inactive or inconclusive;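 also: plate controls were enzyme without inhibitor for no effect and buffer without enzyme for full effect; nearly all actives have a fitted effect of over 40% in size; top concentration of the series not given in the record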
# Target sequence (P25779 123-467 limits assumed): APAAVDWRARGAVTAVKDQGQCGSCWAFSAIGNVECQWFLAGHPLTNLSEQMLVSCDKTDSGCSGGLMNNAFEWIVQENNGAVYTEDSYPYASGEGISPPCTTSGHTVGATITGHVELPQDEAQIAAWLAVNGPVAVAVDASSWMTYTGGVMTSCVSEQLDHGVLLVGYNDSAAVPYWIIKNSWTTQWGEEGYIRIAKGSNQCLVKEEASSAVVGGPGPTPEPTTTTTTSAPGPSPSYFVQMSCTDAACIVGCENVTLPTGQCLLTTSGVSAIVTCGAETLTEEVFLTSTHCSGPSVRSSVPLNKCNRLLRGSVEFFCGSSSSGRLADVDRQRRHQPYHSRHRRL
#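 Detergent-free condition (0.00005% Triton X-100) in acetate buffer pH 5.5 with DTT. 1.5 nM enzyme and compound were pre-mixed 15 min, then 2 uM Z-FR-AMC substrate added; reaction progress from fluorescence change between first and third reads (60 s).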
# SARS PLpro yeast: blocks SARS-CoV papain-like protease in a yeast assay; Potency, µM (titrated, usually from 32.9 µM), without a hit: top-dose activity, positive = growth rescue; AID 485353; hit rate 0.19% among 330,000; S. cerevisiae expressing SARS-CoV PLpro, growth rescue; control for the full effect not named in the record; also: 0% is about no effect; nearly all actives have a fitted effect of over 55% in size; growth read by luminescence after 48 h
# NS1 inh: blocks influenza NS1 protein function; S. cerevisiae slowed by influenza A NS1, growth recovery by OD600; Potency, µM (series often up to 46.1 µM), inactives show top-dose activity, positive = more growth; hit rate 0.4% among 270,000; also: actives are rising curves; nearly all actives have a fitted effect of over 50% in size
#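 OD600 was taken as the measure of yeast growth restored by compound in an NS1-expressing S. cerevisiae strain. Cells had been washed out of glucose medium and diluted 1:100 into galactose -URA medium, pH 6.0.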
# Lassa entry inh: Lassa virus entry inhibition. Lassa virus pseudotype entry inhibition, cell reporter; control for the full effect not named in the record. Potency, µM (doses to about 37.9 µM), inactives show top-dose activity change, negative = inhibition, usual class: inhibitors. hit rate 1.2% among 300,000; active means well fitted inhibition curve with a large enough effect; inconclusive means small, poorly fitted or top-dose-only effect, or effect the other way; inactive means flat fitted curve, though single readings scatter; tested in HEK293 cells; also: % is scaled to controls: 0 for no effect and ±100 for the full control effect; nearly all actives have a fitted effect of over 50% in size; luciferase read-out
# Marburg entry inh: blocks Marburg virus binding to or entry into cells | Marburg virus pseudotyped entry inhibition, cell reporter; control for the full effect not named in the record; about a third of the inactives were read at about 46 µM | Potency, µM (highest dose often 37.8 µM), without a hit: at the highest dose activity change, negative = inhibition, hits mostly inhibitors | hit rate 1.8% among 300,000; active = well fitted inhibition curve with a large enough effect; inconclusive = small, poorly fitted or top-dose-only effect, or effect the other way; inactive = flat fitted curve, though single readings scatter; tested in HEK293 cells; about a fifth of its hits are not listed in these tables; also: % is scaled to controls: 0 for no effect and ±100 for the full control effect; luciferase read-out
# Cruzain inh Det: cruzain (T. cruzi) inhibition with detergent; hit rate 0.43% among 200,000; P25779; Potency, µM, for inactives: max response, negative = inhibition, hits mostly inhibitors; purified cruzain, Z-FR-AMC fluorescence, 0.01% Triton; active = well fitted curve in the direction sought with a large enough effect; inconclusive = small, poorly fitted or top-dose-only effect, or another doubt; inactive = no such curve, though single readings can be large; an effect the other way counts as inactive or inconclusive;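 also: plate controls were neutral wells for no effect and buffer without enzyme for full effect; nearly all actives have a fitted effect of over 40% in size; top concentration of the series not given in the record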
#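 Compounds were screened in titration against cruzain (1.5 nM) with 0.01% Triton X-100 to counter colloidal aggregation. Activity was the AMC fluorescence increase over 60 s after adding 2 uM Z-FR-AMC at pH 5.5.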
# RE007 growth inh: less growth of the S. pombe RE007 Vpr strain | S. pombe RE007 Vpr strain, BacTiter-Glo ATP luminescence, 24 h; control for the full effect not named in the record | Potency, µM (highest dose often 92.2 µM), without a hit: at the top dose activity change, negative = less growth | hit rate 0.21% among 360,000 | AID 651644; active = well fitted falling curve with a large enough effect; inconclusive = small, poorly fitted or top-dose-only effect; inactive = no such curve, though single readings can be large or run the other way;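 also: % is scaled to controls: 0 for no effect and ±100 for the full control effect; nearly all actives have a fitted effect of over 50% in size; the assay follows cell death caused by Vpr and the record does not say whether a fall means rescue or toxicity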
#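 Fission yeast strain RE007, carrying one chromosomally integrated HIV-1 vpr copy, was seeded at OD 0.01 in PMG+AL medium with 23 nL pinned compound. After 24 h at 30 °C and 99% humidity, viability was read by BacTiter-Glo luminescence.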
# * hit, by the source's call; ? = inconclusive; nt = no result given; & = joins results of further samples; [ ] = another dose, or the depositor's remark. Unless noted, calls follow the shape of the dose curve; as a rule, active means well fitted rising curve with a large enough effect; inconclusive means small, poorly fitted or top-dose-only effect; inactive means no such curve, though single readings can be large or run the other way. Potency is read from the fitted curve at half-maximal effect.
SMILES,2A StopGo,Cruzain noTriton,SARS PLpro yeast,NS1 inh,Lassa entry inh,Marburg entry inh,Cruzain inh Det,RE007 growth inh
COc1ccc(C(C#N)c2nc3ccccc3nc2Cl)cc1 (stereo not given),0.0%,nt,0.8%,0.9%,nt,nt,nt,4.0%
COc1cccc(C(=O)NC2CCCc3c2cnn3-c2ccc(C)c(C)c2)c1OC (stereo not given),-23.9%,nt,-6.9%,-74.4%,nt,nt,nt,0.1%
COc1ccc(NC(=O)N2CCC(c3ccccc3)C2)c(OC)c1 (stereo not given),-3.5%,-6.5%,-6.0%,-90.9%,nt,nt,2.4%,-3.2%
O=C(COc1ccccc1F)Nc1cc(S(=O)(=O)N2CCOCC2)ccc1N1CCOCC1,4.5%,nt,0.4%,nt,?,-7.1%[46.1 µM],nt,-8.4%
O=C(Nc1cccc(NC(=O)c2nccc3ccccc23)c1)c1ccco1,nt,-7.2%,-7.5%,-44.0%,3.5%,-28.9%,-4.6%,6.6%
CSCCC(NC(=O)OC(C)(C)C)C(=O)Oc1ccc2c(=O)c(-c3ccc4c(c3)OCCO4)coc2c1 (stereo not given),-33.1%,-14.8%,-3.4%,-44.1%,?,?,?,-13.4%
CN(C)c1ccc(NC(=S)N(CCc2ccccc2)C2CC(=O)N(c3c(Cl)cccc3Cl)C2=O)cc1 (stereo not given),23.7%,15.8µM*,-12.2%,28.1%,3.55µM*,4.47µM*,5.1%,4.9%
CC1CC(C)(C)NC(=S)N1CCC(=O)N1CCN(Cc2ccccc2)CC1 (stereo not given),-13.8%,nt,4.4%,nt,-1.6%,10.7%,nt,2.3%
CCCC(=O)Nc1cc(C(=O)N2CCC3(CC2)OCCO3)ccc1S(=O)(=O)c1ccc(C)cc1,36.9%[activator],19.8%,3.2%,-2.4%,2.0%,-1.5%,0.3%,-8.2%
O=C(Nc1ccc(N2CCOCC2)cc1)c1cccc(-n2cnnc2)c1,-4.1%,nt,?,17.2%,-0.5%,22.0%,nt,11.6%
O=c1cc(Cl)[nH]c(=O)n1Cc1ccccc1,-7.8%,nt,-0.5%,1.5%,?,-3.3%,nt,3.9%
CCCOc1ccc(Cn2c(=O)sc3ccccc32)cc1,-4.6%,-9.9%,nt,nt,-5.1%[46.1 µM],4.0%[46.1 µM],-5.9%,nt
CCOC(=O)C1=C(COC(=O)c2ccc(OC(C)C)cc2)NC(=O)NC1C (stereo not given),-5.9%,nt,2.5%,nt,-0.7%,-8.2%,nt,2.2%
CN1C(C(=O)Nc2ccc(F)cc2F)=CC(c2ccco2)=NS1(=O)=O,-21.3%&-5.5%,1.7%,-2.1%,-5.3%,-29.5%[46.1 µM],-13.8%[46.1 µM],-15.4%,-0.3%
CCc1nc(NCCC(C)C)c2nnn(Cc3ccccc3)c2n1,7.6%,nt,2.4%,11.1%,nt,nt,nt,-2.1%
CCOC(=O)Cn1nc(C)n(-c2cccc(Cl)c2)c1=O,-8.4%,nt,0.6%,3.9%,21.1%,9.2%[46.1 µM],nt,19.8%
O=C(NC1CCN(C(=O)NCc2ccccc2)CC1)c1ccc(F)cc1,2.4%,nt,0.4%,1.3%,-5.0%[46.1 µM],6.8%[46.1 µM],nt,2.0%
Cc1ccc(S(=O)(=O)N(CC2CO2)c2ccccc2[N+](=O)[O-])cc1 (stereo not given),-10.7%,nt,1.6%,6.0%,-2.6%[46.1 µM],?,nt,5.6%
CCn1c(SCC(=O)NCC(=O)Nc2ccc(F)cc2)nnc1-c1ccncc1,-16.3%,-14.6%,-1.3%,-2.9%,13.2%,16.9%,-2.0%,18.9%
CCn1c(COc2ccc(C)cc2)nnc1SCC(=O)NCc1ccco1,0.1%,nt,1.0%,-2.8%,16.0%[46.1 µM],-2.5%[46.1 µM],nt,12.9%
COc1ccc(/C=C(\NC(=O)c2ccc([N+](=O)[O-])cc2)C(=O)NCCCn2ccnc2)cc1,17.1%,nt,0.1%,-5.1%,0.6%,-2.2%[46.1 µM],nt,10.1%
Cc1c(C)c(C)c(S(=O)(=O)NCCc2ccncc2)c(C)c1C,60.2%[activator],nt,0.9%,-0.5%,7.9%,-6.5%,nt,-17.7%
COc1ccc(OC)c(NC(=O)CC(NCCC2=CCCCC2)C(=O)O)c1 (stereo not given),nt,8.2%,-0.5%,4.4%,nt,7.2%,2.6%,nt
Cc1nn(-c2ccccc2)c2sc(C(=O)NNC(=O)COc3ccccc3)cc12,25.7%,-2.0%,-4.4%,9.4%,-4.8%,-5.1%,1.9%,-4.2%
CNC(=O)C1CCC(Cn2c(=O)c3sccc3n(CC(=O)Nc3cc(F)ccc3F)c2=O)CC1 (stereo not given),-3.4%,4.1%,nt,nt,13.5%[46.1 µM],nt,-2.2%,nt
O=c1c2ccccc2nc(/C=C/c2ccccc2O)n1-c1ccc(Br)cc1,?,-11.8%,nt,nt,?,nt,-4.8%,nt
COc1ccccc1-n1c(N)c(C(N)=O)sc1=S,10.3%,10.9%,-0.9%,-6.7%,-2.4%,23.1%,-4.4%,-11.4%
Cn1cc(CN2CCC(C(O)c3cccs3)CC2)c(-c2cccc(Cl)c2)n1 (stereo not given),-4.3%,nt,0.2%,2.4%,-0.3%[46.1 µM],?,nt,-18.9%
COc1cccc(CC(=O)N2CCC(n3nccc3NC(=O)C3CC3)CC2)c1,40.5%[activator],nt,-6.2%,-1.5%,?,4.3%,nt,3.1%
N=c1c(S(=O)(=O)c2ccc(Br)cc2)cc2c(=O)n3ccccc3nc2n1Cc1ccco1,-24.3%,nt,8.0%,18.5%,nt,nt,nt,-15.9%
COc1ccc(C2Oc3ccccc3N2C(C)=O)cc1 (stereo not given),-23.8%,-2.7%,7.6%,-5.6%,?,-12.4%,-1.3%,22.9%
O=C(CNS(=O)(=O)c1ccc2ccccc2c1)Nc1ccc(F)c(F)c1F,15.8%,nt,-2.5%,nt,9.6%,?,nt,-3.7%
COc1ccc(NC(=O)c2ccc(=O)[nH]c2)cc1S(=O)(=O)N1CCOCC1,-21.0%,nt,2.6%,nt,18.2%,-7.1%,nt,3.3%
CCN(CC(=O)Nc1ccccc1C(F)(F)F)CC(=O)NC1CC1,-6.8%,nt,28.9%,nt,7.7%,?,nt,6.6%
COc1ccccc1N1CN(Cc2ccccc2)CNC1=S,-4.7%,nt,-2.0%,2.7%,?,-40.9%,nt,-13.3%
CN(CC1COc2ccccc2O1)c1nc(-c2cccnc2)nc2ccccc12 (stereo not given),25.1µM*,4.5%,-11.2%,-65.8%,?,2.59µM*,-11.7%,-18.7%
CCN1CCCC1CNC(=O)c1cc2c(=O)n(C)c3ccccc3c2n1C (stereo not given),0.0%,-9.9%,12.1%,12.6%,nt,nt,-26.7%,-0.6%
COc1ccc(OC)c(S(=O)(=O)Nc2ccccc2C(F)(F)F)c1,84.0%[activator],-7.0%,18.0%,-6.7%,0.0%,9.6%,-2.1%,12.2%
COc1ccc(NS(=O)(=O)c2cccc(C(=O)NCCCN3CCCC3=O)c2)cc1,-12.1%,nt,-9.3%,nt,5.2%,-0.6%[46.1 µM],nt,-6.1%
COc1ccc(C(=O)COC(=O)C(CC(C)C)N2C(=O)c3ccccc3C2=O)cc1 (stereo not given),-18.9%,4.9%,6.0%,8.4%,-11.7%,-15.6%,-10.0%,1.8%
Cc1ccccc1C1=NC(C(F)(F)F)(C(F)(F)F)c2c(n(-c3ccc(F)cc3)c(=O)[nH]c2=O)N1,-16.5%,6.4%,-16.2%,18.0%,-13.7%,2.8%,-11.3%,-0.2%
C=CCNC(=O)CSc1ccc(Cl)cc1,7.4%,3.9%,-2.2%,2.4%,-2.4%,-14.8%[46.1 µM],5.7%,-10.3%
CCCCn1c(N)c(N(CCOC)C(=O)COC(=O)c2cc(CCC)c(C)s2)c(=O)[nH]c1=O,-9.4%,nt,?,nt,13.4%,?,nt,10.7%
c1cc2c(cc1C1CCCCC1)c1c3n2CCCNC3CCC1 (stereo not given),0.0%,1.1%,-52.1%,-30.3%,?,?,1.5%,?
COc1ccc2c(c1)C(c1cccs1)=NNC(c1ccncc1)=N2,-7.0%,nt,-0.7%,7.3%,nt,nt,nt,-10.4%
Cc1ccc(C(=O)Nc2cccc(C(=O)OCc3cc(=O)n4c5c(sc4n3)CCCC5)c2)cc1,-18.5%,-4.1%,nt,nt,25.8%[46.1 µM],nt,1.6%,nt
COc1ccc(C2=[N+](C)CCn3cccc32)c(OC)c1,?,-19.9%,-4.4%,-2.4%,?,?,-9.8%,-3.8%
Cc1nn2c(NCCCn3ccnc3)cc(C(C)C)nc2c1-c1ccccc1,-21.4%,nt,0.1%,-3.1%,20.8%,?,nt,-7.2%
CC(C)Oc1cc(NC(=O)CSCC(=O)Nc2cccc(C(F)(F)F)c2)c(Cl)cc1Cl,nt,3.1%,-29.2%,-0.5%,-4.2%,-8.5%,-5.6%,1.5%
O=C(COC(=O)C1=COCCO1)Nc1ncc(Cl)cc1Cl,3.3%,nt,0.4%,nt,3.0%,?,nt,-20.4%
# (continued)
SMILES,2A StopGo,Cruzain noTriton,SARS PLpro yeast,NS1 inh,Lassa entry inh,Marburg entry inh,Cruzain inh Det,RE007 growth inh
CN(C(=O)CSc1nc2ccccc2[nH]1)c1ccc(F)cc1,6.1%,13.4%,nt,nt,nt,3.9%[46.1 µM],0.9%,nt
Cc1ccc(N2C(=O)C(Cl)=C(N3CCCCCC3)C2=O)c(C)c1,?,nt,-2.8%,-7.9%,?,?,nt,1.1%
CC(NC(=O)c1ccccc1F)c1nnc(SCC(=O)Nc2nnc(C3CC3)s2)n1C (stereo not given),-13.4%,nt,-5.5%,nt,3.8%,2.2%[46.1 µM],nt,4.2%
CN(C)/C=C/C(=O)c1cnc(-c2ccccc2)s1,45.1%[activator],nt,1.8%,nt,?,?,nt,17.5%
O=C(NCCN1CCN(Cc2ccccc2)CC1)c1cc2c(=O)[nH]c3ccccc3c2s1,nt,-1.4%,7.7%,-1.4%,-33.8%,?,-12.6%,-14.3%
